Screening results as filed in PubChem.
MbtI inh: MbtI salicylate synthase inhibitors, primary screen, biochemical, fluorescence intensity; hit rate 0.89% among 100,000; AID 493033, 2011; purified MbtI enzyme, fluorescence intensity read-out; P9WFX0; inhibition, %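 (about 17 µg/mL by stock and volumes)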;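 active = above 50% in both replicates, above 80% if mildly self-fluorescent; inactive = the rest, strongly fluorescent compounds included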;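 also: 0% = mean of negative and 100% = mean of positive controls; one replicate is shown; some compounds called inactive have numbers as strong as hits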
Target sequence (P9WFX0 whole entry, looked up): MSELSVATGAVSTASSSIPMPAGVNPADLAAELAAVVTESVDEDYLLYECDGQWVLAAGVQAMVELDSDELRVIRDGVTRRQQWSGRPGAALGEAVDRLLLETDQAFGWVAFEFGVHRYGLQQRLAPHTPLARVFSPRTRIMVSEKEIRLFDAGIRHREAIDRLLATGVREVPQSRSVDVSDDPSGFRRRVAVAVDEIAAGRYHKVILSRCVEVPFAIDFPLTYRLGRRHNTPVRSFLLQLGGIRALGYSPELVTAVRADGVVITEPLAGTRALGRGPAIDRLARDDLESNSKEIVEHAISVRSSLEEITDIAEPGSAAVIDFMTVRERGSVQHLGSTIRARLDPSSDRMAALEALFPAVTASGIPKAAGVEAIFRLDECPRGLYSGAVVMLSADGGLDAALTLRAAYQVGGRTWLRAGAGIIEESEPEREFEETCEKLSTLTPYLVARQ
PV pol inh: poliovirus RdRp elongation inhibitors, primary screen, biochemical, fluorescence polarization, total intensity; AID 588519, 2011; % elongation, % (compound at 16.7 µg/mL); hit rate 0.66% among 150,000; Genome polyprotein (Poliovirus type 1 (strain Mahoney)), P03300; poliovirus polymerase elongation; stronger effect = lower value; in the data active = % elongation below about 90%; also: some results filed as inactive read as strong as hits
Target sequence (P03300 1749-2209 limits assumed): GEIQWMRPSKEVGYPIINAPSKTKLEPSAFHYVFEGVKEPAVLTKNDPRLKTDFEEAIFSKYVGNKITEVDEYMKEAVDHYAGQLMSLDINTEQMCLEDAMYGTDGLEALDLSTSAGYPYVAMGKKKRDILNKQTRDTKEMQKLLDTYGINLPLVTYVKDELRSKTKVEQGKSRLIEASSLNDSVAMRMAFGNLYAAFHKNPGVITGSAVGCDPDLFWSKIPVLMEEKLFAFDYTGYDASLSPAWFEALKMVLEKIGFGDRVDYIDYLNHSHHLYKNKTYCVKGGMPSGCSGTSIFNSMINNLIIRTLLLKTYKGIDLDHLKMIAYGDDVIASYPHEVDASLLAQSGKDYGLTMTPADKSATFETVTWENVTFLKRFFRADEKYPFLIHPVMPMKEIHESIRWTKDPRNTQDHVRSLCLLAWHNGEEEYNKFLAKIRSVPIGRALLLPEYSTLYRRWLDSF
Mtb MenB inh: M. tuberculosis MenB inhibitors, primary screen, biochemical, absorbance. inhibition, %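 (about 12 µg/mL by stock and volumes)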. MenB enzyme assay, absorbance read-out; some hits fall short of the stated cut. 1,4-dihydroxy-2-naphthoyl-CoA synthase (Mycobacterium tuberculosis (strain ATCC 25618 / …. AID 540299, 2011. hit rate 0.43% among 100,000;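 active = mean of two replicates above 30%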;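 also: 0% = no compound and 100% = wells with inactive enzyme; the first replicate is given; strong numbers were not always called active; inactives centre near -10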
PV pol inh intensity: recorded beside PV pol inh, whose call it bears; % elongation; measured here: total intensity read-out; formula for this scale not given here;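 total fluorescence in place of polarization; lower means less elongation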
* hit, by the source's call.

Screening CCSC1=C(C#N)C2(CCCCC2)C(C#N)=C(N)N1 returned MbtI inh -19.0, PV pol inh 103.0, Mtb MenB inh -18.6 and PV pol inh intensity 104.0.
CCc1nc(NCCN2CCOCC2)c(C#N)c2c1COC(C)(C)C2 was read as MbtI inh 26.0, PV pol inh 101.0, Mtb MenB inh 7.8 and PV pol inh intensity 101.0.
FC(F)(F)c1cccc(/C=N/n2cnnc2SCc2ccccc2)c1 was read as MbtI inh 14.6, PV pol inh 101.0, Mtb MenB inh -21.7 and PV pol inh intensity 107.0.
`COc1ccc(-c2cc(C(=O)N3CCCC3C(=O)O)c(C)o2)cc1OC` (configuration not stated) gave MbtI inh 14.4, PV pol inh 98.0, Mtb MenB inh -1.3 and PV pol inh intensity 100.0.
For CC(=O)OC1=CSc2ccc(Br)c3cccc1c23 the results were MbtI inh -3.2, PV pol inh 103.0, Mtb MenB inh -30.6 and PV pol inh intensity 104.0.
`O=S1(=O)CCC(N2C(=S)SC3CS(=O)(=O)CC32)C1` (configuration not stated) gave MbtI inh 20.5, PV pol inh 100.0, Mtb MenB inh 3.8 and PV pol inh intensity 102.0.
Cc1noc2nc(C(=O)NCCC3=CCCCC3)nc(N3CCOCC3)c12 was read as MbtI inh -10.4, PV pol inh 101.0, Mtb MenB inh 4.1 and PV pol inh intensity 103.0.
Cc1ccccc1OCC(=O)N(C)Cc1c(C)nn(C2CCS(=O)(=O)C2)c1C (configuration not stated) was read as MbtI inh -7.8, PV pol inh 107.0, Mtb MenB inh -26.8 and PV pol inh intensity 109.0.
`CCC(=O)NC1CC(C(C)(C)NC(=O)CC)CC=C1C` (configuration not stated) gave PV pol inh 99.0, Mtb MenB inh 5.3 and PV pol inh intensity 95.0.
For CN1CCN(C(=O)CCC(=O)c2ccc(F)cc2)CC1 the results were MbtI inh -3.7, PV pol inh 102.0, Mtb MenB inh -20.4 and PV pol inh intensity 97.0.
Screening COc1cc(C(=O)N2CCN(C(=O)C(Cc3cc(C)ccc3C)NC(C)=O)CC2)cc(OC)c1OC (configuration not stated) returned MbtI inh -2.5, PV pol inh 102.0, Mtb MenB inh -20.3 and PV pol inh intensity 104.0.
Screening Cc1c(NC(C)C(=O)Nc2ccc(S(=O)(=O)N3CCOCC3)cc2)c(=O)n(-c2ccccc2)n1C (configuration not stated) returned MbtI inh -3.5, PV pol inh 104.0, Mtb MenB inh -11.4 and PV pol inh intensity 98.0.
For O=C(NCC(F)(F)F)OCc1ccc(F)cc1 the results were MbtI inh 4.4, PV pol inh 101.0, Mtb MenB inh -4.7 and PV pol inh intensity 102.0.
COc1ccccc1NC(=S)NCc1cccn1C was read as MbtI inh -17.5, PV pol inh 99.0, Mtb MenB inh -2.9 and PV pol inh intensity 100.0.
Screening CC1(C)Cc2cccc(Oc3ncnc4sccc34)c2O1 returned MbtI inh 4.3, PV pol inh 101.0, Mtb MenB inh 11.8 and PV pol inh intensity 100.0.
For CNS(=O)(=O)c1cc(C(C)(C)C)cc(C)c1C the results were MbtI inh -6.4, PV pol inh 99.0, Mtb MenB inh -6.8 and PV pol inh intensity 103.0.
`CCSc1n[nH]c(C(F)(F)F)n1` gave MbtI inh 18.9, PV pol inh 104.0, Mtb MenB inh -5.0 and PV pol inh intensity 101.0.
`COc1cccc2cc(C(=O)CBr)c(=O)oc12` gave MbtI inh 19.2, PV pol inh 101.0 and PV pol inh intensity 92.0.
O=C(NCc1n[nH]c(=O)c2ccccc12)C1CC1 was read as MbtI inh -8.1, PV pol inh 105.0, Mtb MenB inh -20.1 and PV pol inh intensity 113.0.
Screening CCCc1nc2c(sc3nc(COC)cc(C)c32)c2nc3ccccc3n12 returned PV pol inh 104.0, Mtb MenB inh -12.1 and PV pol inh intensity 104.0.
For CC1(C)Cc2c(c(=O)n(-c3ccccc3)c3ncnc(N)c23)CO1 the results were MbtI inh -0.8, PV pol inh 100.0, Mtb MenB inh 0.8 and PV pol inh intensity 107.0.
Screening COc1ccc(-c2nc3cc(F)c(Cl)cc3nc2-c2ccc(OC)cc2)cc1 returned MbtI inh 20.5, PV pol inh 102.0, Mtb MenB inh -15.9 and PV pol inh intensity 106.0.
For COc1ccccc1N1C(=O)C=CC1=O the results were MbtI inh 98.2*, PV pol inh 98.0 and PV pol inh intensity 98.0.
Screening O=C(O)CS(=O)(=O)c1ccccc1 returned MbtI inh 0.4, PV pol inh 99.0, Mtb MenB inh 16.6 and PV pol inh intensity 101.0.
`COc1ccc(S(=O)(=O)N2Cc3ccccc3CC2C(=O)Nc2nccs2)cc1OC` (configuration not stated) gave MbtI inh -19.1, PV pol inh 99.0, Mtb MenB inh -4.9 and PV pol inh intensity 102.0.
For CSc1ccccc1NC(=O)CN(C)C(=O)Cn1c(=O)oc2ccccc21 the results were MbtI inh 3.0, PV pol inh 101.0, Mtb MenB inh 12.4 and PV pol inh intensity 105.0.
`O=C(CCN=C1NS(=O)(=O)c2ccccc21)Nc1cccnc1` gave MbtI inh -9.7, PV pol inh 103.0, Mtb MenB inh -25.0 and PV pol inh intensity 106.0.
Screening Cc1oc(-c2cccc(Cl)c2)nc1CN1CCC(C(=O)NCc2ccc(Cl)cc2)CC1 returned MbtI inh 5.9, PV pol inh 101.0, Mtb MenB inh 6.1 and PV pol inh intensity 104.0.
Screening O=C(NCCSc1nnnn1-c1ccccc1)c1ccco1 returned MbtI inh -5.2, PV pol inh 101.0, Mtb MenB inh -13.2 and PV pol inh intensity 102.0.
Cc1ccc(NS(=O)(=O)c2cn(C)cn2)cc1 was read as MbtI inh -8.3, PV pol inh 101.0, Mtb MenB inh -17.4 and PV pol inh intensity 102.0.

2 successive records already listed, quoted:
For CNS(=O)(=O)c1cc(C(C)(C)C)cc(C)c1C the results were MbtI inh -6.4, PV pol inh 99.0, Mtb MenB inh -6.8 and PV pol inh intensity 103.0.
`CCSc1n[nH]c(C(F)(F)F)n1` gave MbtI inh 18.9, PV pol inh 104.0, Mtb MenB inh -5.0 and PV pol inh intensity 101.0.

Six records drawn at random from those above, as already listed:
`O=C(CCN=C1NS(=O)(=O)c2ccccc21)Nc1cccnc1` gave MbtI inh -9.7, PV pol inh 103.0, Mtb MenB inh -25.0 and PV pol inh intensity 106.0.
Screening COc1ccc(-c2nc3cc(F)c(Cl)cc3nc2-c2ccc(OC)cc2)cc1 returned MbtI inh 20.5, PV pol inh 102.0, Mtb MenB inh -15.9 and PV pol inh intensity 106.0.
For CNS(=O)(=O)c1cc(C(C)(C)C)cc(C)c1C the results were MbtI inh -6.4, PV pol inh 99.0, Mtb MenB inh -6.8 and PV pol inh intensity 103.0.
Screening CCCc1nc2c(sc3nc(COC)cc(C)c32)c2nc3ccccc3n12 returned PV pol inh 104.0, Mtb MenB inh -12.1 and PV pol inh intensity 104.0.
For CSc1ccccc1NC(=O)CN(C)C(=O)Cn1c(=O)oc2ccccc21 the results were MbtI inh 3.0, PV pol inh 101.0, Mtb MenB inh 12.4 and PV pol inh intensity 105.0.
Screening O=C(NCCSc1nnnn1-c1ccccc1)c1ccco1 returned MbtI inh -5.2, PV pol inh 101.0, Mtb MenB inh -13.2 and PV pol inh intensity 102.0.

Following part:
CC(C)C(NS(=O)(=O)c1ccc2c(c1)OCCCO2)C(=O)O (configuration not stated) was read as MbtI inh 1.3, PV pol inh 102.0, Mtb MenB inh -1.1 and PV pol inh intensity 96.0.
For O=c1[nH]c(CSC2CCCCC2)nc2ccccc12 the results were MbtI inh 26.0, PV pol inh 101.0, Mtb MenB inh -21.0 and PV pol inh intensity 105.0.
For COc1cccc(CNC(=O)c2cccs2)c1 the results were MbtI inh 5.2, PV pol inh 104.0, Mtb MenB inh 7.7 and PV pol inh intensity 101.0.
For Cc1ccc(C)c(C(=O)OC2CCCCC2=O)c1 (configuration not stated) the results were MbtI inh 6.3, PV pol inh 104.0, Mtb MenB inh -87.4 and PV pol inh intensity 105.0.
`Cn1nnnc1SCC(=O)N1c2ccccc2Sc2ccccc21` gave MbtI inh -8.9, PV pol inh 104.0, Mtb MenB inh -24.0 and PV pol inh intensity 105.0.
CC(=O)Nc1ccc(C(=O)CSc2nc3ccccc3n2C)cc1 was read as MbtI inh -2.8, PV pol inh 104.0, Mtb MenB inh -28.4 and PV pol inh intensity 102.0.
`CCOc1ccc2nc(S/C=C/C(=O)c3ccc(Cl)cc3)sc2c1` gave MbtI inh -4.5, PV pol inh 97.0, Mtb MenB inh 17.7 and PV pol inh intensity 98.0.
Screening c1cc(Nc2ncnc3sccc23)cc(-c2nnc3n2CCCCC3)c1 returned MbtI inh -16.8, PV pol inh 116.0, Mtb MenB inh -25.9 and PV pol inh intensity 135.0.
Screening COc1cc2c3nc4n(c(=O)c3n(CC(=O)NC3CCCC3)c2cc1OC)CCS4 returned MbtI inh 11.6, PV pol inh 103.0, Mtb MenB inh -6.7 and PV pol inh intensity 100.0.
`CC(C)C(=O)c1cc2c(cc1N)OCCO2` gave MbtI inh -25.1, PV pol inh 98.0, Mtb MenB inh -24.6 and PV pol inh intensity 100.0.
Screening COc1cc(SC)ccc1C(=O)N(C)Cc1ccccc1 returned PV pol inh 108.0, Mtb MenB inh -19.3 and PV pol inh intensity 107.0.
`O=C(Cn1cnc(S(=O)(=O)N2CCCCC2)c1)NCc1ccco1` gave MbtI inh -3.2, PV pol inh 98.0, Mtb MenB inh 3.8 and PV pol inh intensity 101.0.
Cc1ccc(N2CC(C(=O)OCc3nc(N)nc(Nc4ccccc4C)n3)CC2=O)cc1 (configuration not stated) was read as MbtI inh 0.0, PV pol inh 104.0, Mtb MenB inh -20.9 and PV pol inh intensity 104.0.
`CCN1CCN(Cc2ccc(NC(=O)Cn3ncc4c3-c3ccccc3OC4)cc2)CC1` gave MbtI inh -6.3, PV pol inh 99.0, Mtb MenB inh 3.4 and PV pol inh intensity 101.0.
For O=C(NCCCn1ccnc1)c1nc(-c2ccc(C(F)(F)F)cc2)no1 the results were MbtI inh -9.6, PV pol inh 105.0, Mtb MenB inh -23.7 and PV pol inh intensity 103.0.
`COc1ccc2oc(=O)cc(CN(C)Cc3ccco3)c2c1` gave MbtI inh -6.7, PV pol inh 104.0, Mtb MenB inh -13.2 and PV pol inh intensity 109.0.
`CN1CCCN(Cn2nc3ccccn3c2=S)CC1` gave MbtI inh 47.8, PV pol inh 15.0*, Mtb MenB inh -8.1 and PV pol inh intensity 42.0*.
`CCn1c(=O)c(=O)[nH]c2cc(C(=O)NCCSCc3ccco3)ccc21` gave MbtI inh 21.1, PV pol inh 100.0, Mtb MenB inh 1.8 and PV pol inh intensity 111.0.
For CCOc1ccccc1-n1nnnc1SCC(=O)Nc1cc(C)ccc1C(=O)O the results were MbtI inh -10.2, PV pol inh 103.0, Mtb MenB inh -31.9 and PV pol inh intensity 105.0.
For COc1ccccc1N1CCN(C(=O)[C@H](C)N2CCN(c3nc4cc(Cl)ccc4s3)CC2)CC1 the results were MbtI inh 7.6, PV pol inh 101.0, Mtb MenB inh -3.7 and PV pol inh intensity 101.0.
C[N+]1(C)CCOC12CCCCC2 was read as MbtI inh -4.1, PV pol inh 99.0, Mtb MenB inh 45.4* and PV pol inh intensity 103.0.
Clc1ccc(-c2noc3ncnc(Nc4ccccc4)c23)cc1 was read as MbtI inh -27.1, PV pol inh 102.0, Mtb MenB inh -4.8 and PV pol inh intensity 103.0.
`Cc1ccc(-c2nc3ccccc3c(=O)o2)cc1` gave PV pol inh 106.0, Mtb MenB inh 1.7 and PV pol inh intensity 105.0.
For Fc1cccc(Cl)c1-c1nnc2ccc(C(F)(F)F)cn12 the results were MbtI inh 9.4, PV pol inh 100.0, Mtb MenB inh 2.3 and PV pol inh intensity 102.0.
For Cc1cccc(C)c1OCc1nc2c3cnn(-c4nc5ccccc5s4)c3ncn2n1 the results were MbtI inh 9.3, PV pol inh 103.0, Mtb MenB inh 12.2 and PV pol inh intensity 97.0.
For CC1=C/C(=N\Nc2nc(C)cc(=O)[nH]2)CC(C)(C)C1 the results were MbtI inh -2.8, PV pol inh 102.0, Mtb MenB inh -12.8 and PV pol inh intensity 99.0.
Screening CCOC(=O)/C(C#N)=C1/C=C(C)NC(c2ccccc2O)=N1 returned MbtI inh -20.9, PV pol inh 100.0, Mtb MenB inh -34.6 and PV pol inh intensity 102.0.
`CCN(Cc1ccccc1)C(=O)C1CC2CCCN2C12C(=O)Nc1ccccc12` (configuration not stated) gave MbtI inh -13.8, PV pol inh 101.0, Mtb MenB inh -11.7 and PV pol inh intensity 100.0.
For Cc1cc(C(=O)NN2C(=O)CSC2c2ccc(-n3ccnc3)cc2)c(C)o1 (configuration not stated) the results were MbtI inh -3.4 and Mtb MenB inh -5.4.
Screening O=C(O)CC1(CC(=O)N2CCC(Cc3ccccc3)CC2)CCCC1 returned MbtI inh -8.3, PV pol inh 101.0 and PV pol inh intensity 100.0.
`COC(=O)c1cc(=O)c2c(C)nc(-c3ccc(Cl)cc3)nc2[nH]1` gave PV pol inh 103.0, Mtb MenB inh -15.0 and PV pol inh intensity 113.0.
`CCc1ccc(N=Cc2c(O)[nH]c3ccccc23)cc1` gave MbtI inh 0.2, PV pol inh 101.0, Mtb MenB inh -64.3 and PV pol inh intensity 101.0.
For O=C1CSC(=NC(=O)c2ccc(Cl)c(Cl)c2)N1 the results were MbtI inh 17.0, PV pol inh 103.0 and PV pol inh intensity 105.0.
